# MT1-MMP act inh: MT1-MMP (human) activation inhibition | P50281 | HT1080 RFP-PRO-GFP cells, GFP/RFP ratio fluorescence, overnight; percent of plate control window, DMSO zero | GFP/RFP ratio change, % at 20 µM | 0.061% of 360,000 active | AID 651647;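 active = GFP/RFP ratio change of at least 30% with cell ATP level not reduced by more than half and red fluorescence within 50% of control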; note: strong numbers were not always called active
#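 Assay system: HT1080 cells carrying an RFP-PRO-GFP reporter | Dosing: Single dose of 20 µM compound, 1% DMSO final | Incubation: Cells overnight before dosing, compound overnight, 37 °C, 5% CO2 | Evaluation: GFP/RFP fluorescence ratio | Control set: DMSO and RFP-L50D-GFP cell wells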
# Rce1 inh: yeast Ras-converting enzyme inhibition; calls only; AID 2563; 0.27% of 290,000 active; yeast membranes, quenched prenylated peptide cleavage fluorescence;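 active = fall in fluorescence gain of 50% or more versus controls, with final raw signal at or below 3038400; inconclusive = same 50% fall but final raw signal above 3038400; inactive = fall in fluorescence gain under 50%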;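 note: plate controls were neutral control wells for no effect and wells lacking membranes for full effect; tested at 10 µM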
# eIF4H FP inh: inhibitors of RNA binding by human eIF4H; Q15056; eIF4H fluorescence polarization binding assay; inhibition, % at 35 µM; 0.94% of 290,000 active; AID 2012;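 active = 50% or more with normal probe brightness, or confirmed in later tests; inconclusive = above 50% with abnormal brightness, or retests that disagree; inactive = below 50% or failed in later tests; about a fifth of its hits are not listed in these tables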;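 note: calls also rest on retests at 20 µM and on dose response follow-up; 0% = protein and probe with vehicle and 100% = probe without protein; strong numbers were not always called active; many hits fall short of the cut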
# HIV Env fusion: blocks HIV Env-driven cell-cell fusion; 1.1% of 360,000 active; HeLa-JRFL Env/CEM21 cell fusion, luciferase; inhibition, % at 12.3 µM;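 active = mean replicate inhibition score of at least 50 and every replicate individually at or above 50; inconclusive = only one of the two criteria met; inactive = mean below 50 and not all replicates reaching 50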;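 note: 0% = plate neutral controls and 100% = maraviroc near 300 nM; one replicate is shown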
# PABP FP inh: PABP-poly(A) binding inhibition | PABP-poly(A) RNA binding, fluorescence polarization | inhibition, % at 35 µM | 1% of 290,000 active;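 active = 50% or more with normal probe brightness, or confirmed in later tests; inconclusive = above 50% with abnormal brightness, or retests that disagree; inactive = below 50% or failed in later tests; about a fifth of its hits are not listed in these tables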;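 note: calls also rest on retests at 20 µM and on dose response follow-up; controls were probe without protein and protein plus probe with vehicle; some compounds called inactive have numbers as strong as hits; many hits fall short of the cut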
# Target sequence (P11940 whole entry, looked up): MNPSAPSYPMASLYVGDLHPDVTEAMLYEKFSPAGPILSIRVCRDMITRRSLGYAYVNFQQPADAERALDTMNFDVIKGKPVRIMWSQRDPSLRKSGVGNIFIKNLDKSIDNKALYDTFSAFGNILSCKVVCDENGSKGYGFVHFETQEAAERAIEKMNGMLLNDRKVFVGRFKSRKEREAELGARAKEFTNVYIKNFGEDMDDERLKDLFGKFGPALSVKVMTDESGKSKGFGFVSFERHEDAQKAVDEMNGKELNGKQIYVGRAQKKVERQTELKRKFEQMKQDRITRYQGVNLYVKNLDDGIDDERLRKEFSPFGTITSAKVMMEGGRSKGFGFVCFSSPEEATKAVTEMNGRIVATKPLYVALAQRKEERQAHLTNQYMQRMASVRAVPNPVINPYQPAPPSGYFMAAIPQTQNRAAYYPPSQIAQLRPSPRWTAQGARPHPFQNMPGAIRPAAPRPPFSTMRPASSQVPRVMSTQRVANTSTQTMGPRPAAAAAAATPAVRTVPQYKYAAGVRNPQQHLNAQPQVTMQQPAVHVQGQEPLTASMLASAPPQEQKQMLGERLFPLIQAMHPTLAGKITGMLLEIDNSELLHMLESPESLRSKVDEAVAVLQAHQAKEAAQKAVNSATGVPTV
# CSC inhib: blocks cancer stem cells; AID 2717; inhibition, % at 7.5 µM; 1.1% of 300,000 active; cancer stem cell-like cells viability, luminescence;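 active = mean at 75% or more and at least half the replicates too; inconclusive = mean and replicates disagree; tested in HMLE shEcad cells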;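 note: 0% = median of negative and 100% = median of positive control wells; the first replicate is given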
# UUG fidelity: alters start codon recognition fidelity in yeast; activity score, % at 18.7 µM; AID 602363; 0.13% of 350,000 active; S. cerevisiae UUG-firefly luciferase reporter, luminescence/redox ratio;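 active = replicate mean at a twofold rise or more, about +100% in these data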;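 note: firefly luciferase made from a UUG start codon reports start codon fidelity; reporter light over untreated wells divided by growth signal over untreated wells; some hits fall short of that in this replicate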
# MT1-MMP act inh RFP: recorded beside MT1-MMP act inh, whose call it bears; RFP signal change, %; measured here: RFP expression control read;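 0 = vehicle wells; hits needed this value within 50% of zero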
# The depositor's hits bear a star; i = inactive; ? = inconclusive; . = not tested or not shown. These rows are one share of the data. The share of hits here may be higher or lower than overall.
structure	MT1-MMP act inh	MT1-MMP act inh RFP	Rce1 inh	eIF4H FP inh	HIV Env fusion	PABP FP inh	CSC inhib	UUG fidelity
CCC(NC(=O)CCc1c(C)c2cc3c(-c4ccccc4)coc3cc2oc1=O)C(=O)O (configuration not stated)	3.5	1.4	i	0.1	-5.7	25.6	-0.4	1.4
C[C@H](NC(=O)c1nc[nH]c1C(=O)N[C@@H](CCCCN)C(=O)OC(C)(C)C)C(=O)OC(C)(C)C	-0.5	0.0	i	.	-4.9	.	-9.2	-7.0
CCOc1ccc(OCc2ccc(C(=O)N/N=C(\C)c3ccccn3)cc2)cc1	3.8	-4.7	i	8.8	17.9	17.7	-8.0	.
CCCN(CCC)C(=O)c1c(C)[nH]c(C(=O)OCC)c1C	3.2	1.3	i	-11.1	21.7	-14.2	.	-6.7
Cc1ccc(NC(=O)[C@@H]2CCCN2C(=O)[C@@H]2Cc3ccccc3CN2)c(C)c1	3.5	2.4	i	-12.7	-1.5	1.2	-8.3	-16.6
CCc1nc(SCc2ccccn2)c2c(=O)n(C)c(=O)n(C)c2n1	3.4	-2.4	i	-1.2	-60.3	-2.6	.	-2.1
CCCCCOc1ccc(CSC2=NCCN2)cc1[N+](=O)[O-]	-1.2	1.0	.	0.1	-19.9	2.3	61.6	.
O=C(CC1NC(=O)NC1=O)Nc1cccc2ccccc12 (configuration not stated)	10.2	2.5	i	-7.1	-175.9	-6.7	29.4	5.9
Cc1ccc2[nH]c(=O)c(CN(CCO)C(=O)NCc3ccccc3)cc2c1	0.8	2.1	i	-7.2	.	2.7	-2.4	-6.1
CCCCC(=O)NC(c1cccc([N+](=O)[O-])c1)c1c(OC(C)=O)ccc2ccccc12 (configuration not stated)	-27.1	-35.1	i	-2.6	.	-6.1	32.4	-5.3
CC(=O)c1c(C)oc2ccc(N(C(C)=O)S(=O)(=O)c3cccc([N+](=O)[O-])c3)cc12	-1.4	-10.1	i	2.3	-7.8	1.6	-10.8	.
N#Cc1nc(COc2ccc(Br)cc2)oc1N1CCN(Cc2ccccc2)CC1	3.5	-2.1	.	-1.1	.	0.9	.	-13.0
CCCC(=O)N1CCC1(C)C(=O)Nc1ccc(OC(F)F)cc1 (configuration not stated)	1.2	4.8	.	.	6.6	.	.	-12.4
CCCOc1ccc(/C=N/NC(=O)c2ccc(Cn3cc([N+](=O)[O-])cn3)o2)cc1	-0.6	2.7	i	2.6	.	-6.8	12.3	.
CC1CCCCN1C(=O)COC(=O)C1CCN(S(=O)(=O)c2ccc(Cl)c(C(F)(F)F)c2)CC1 (configuration not stated)	-0.3	-1.7	i	.	-14.8	.	2.0	-19.2
CCCCNC(=O)CN(Cc1ccco1)S(=O)(=O)c1ccc(C(C)=O)cc1	-2.4	2.1	.	.	-14.0	.	.	6.3
CCc1nc2ccc(C(=O)NCCCn3ccnc3)cn2c1N(CC)CCN(C)C	-3.5	2.6	.	.	12.9	.	.	-23.0
CN1CCN(S(=O)(=O)c2cc([N+](=O)[O-])ccc2N2CCCCCC2)CC1	0.3	-0.3	i	3.6	1.2	1.8	-5.6	-9.0
N/C(=N\OC(=O)Cc1cccs1)c1cccc([N+](=O)[O-])c1	-1.6	2.2	i	-1.1	-27.4	-3.9	-6.8	.
CC(=O)Nc1ccc(-c2cc(-c3ccc(NC(C)=O)cc3)nc(-c3ccc(NC(C)=O)cc3)n2)cc1	8.1	2.6	i	-7.9	.	-20.7	5.2	-9.4
O=C(Nc1ccccc1F)N1CCC(NC(=O)C23CC4CC(CC(C4)C2)C3)CC1	1.1	0.5	.	-14.7	2.1	-7.0	4.8	-7.4
NS(=O)(=O)c1ccc(NC(=O)CSc2nc3ccccc3nc2N2CCOCC2)cc1	-3.5	0.6	i	-0.1	-3.7	5.1	-5.9	-1.3
NS(=O)(=O)c1cccc(NC(=O)c2ccno2)c1	-1.1	-0.9	i	2.5	2.5	0.1	-11.0	-12.4
COc1cc(/C=C/c2ccc3cccc(O)c3n2)ccc1O	-10.7	-7.7	i	6.2	-110.4	-1.7	75.3*	-7.7
COC(=O)c1[nH]c2cccc(OC)c2c1NC(=O)CN1CC(C)OC(C)C1 (configuration not stated)	2.2	4.1	i	3.2	1.3	9.0	-12.0	-17.5
Cc1ccc(C)c(N2CCN(C3CCCCC3NS(=O)(=O)c3ccccc3)CC2)c1 (configuration not stated)	-8.6	-11.8	i	-14.2	.	1.7	8.6	-2.7
Cc1ccc(C(C)(C)C)c(SCC(=O)Nc2nnc(C)s2)c1	3.2	-4.9	i	-1.0	18.5	2.0	0.0	-9.2
CCOc1cccc(NC(=O)CSc2sc3c(O)cc(=O)[nH]c3c2C#N)c1	-2.0	2.1	.	-3.6	4.4	14.1	0.7	-18.1
COC(=O)c1ccc(Cl)c(-c2ccc(/C=N/NC(=O)Nc3ccccc3)o2)c1	1.8	3.1	i	-0.1	.	-0.6	-7.5	-13.4
Cc1ccc(S(=O)(=O)N2CCCC2=O)c(C)c1N(C)S(C)(=O)=O	0.6	1.0	i	-1.9	-8.3	3.7	-6.6	-4.8

# Looked up by compound from above (2):
structure	MT1-MMP act inh	MT1-MMP act inh RFP	Rce1 inh	eIF4H FP inh	HIV Env fusion	PABP FP inh	CSC inhib	UUG fidelity
CCOc1cccc(NC(=O)CSc2sc3c(O)cc(=O)[nH]c3c2C#N)c1	-2.0	2.1	.	-3.6	4.4	14.1	0.7	-18.1
N#Cc1nc(COc2ccc(Br)cc2)oc1N1CCN(Cc2ccccc2)CC1	3.5	-2.1	.	-1.1	.	0.9	.	-13.0

# More entries follow:
structure	MT1-MMP act inh	MT1-MMP act inh RFP	Rce1 inh	eIF4H FP inh	HIV Env fusion	PABP FP inh	CSC inhib	UUG fidelity
Cc1ccc(NC(=O)CSCC(=O)N=c2sccn2C)cc1	-0.1	5.7	i	.	0.5	.	-5.3	-9.8
COc1ccc(S(=O)(=O)N2CCSCC2)cc1C(N)=O	1.9	0.4	i	0.6	-3.0	6.8	-17.1	-16.6
COc1ccc(S(=O)(=O)N2CCN(Cc3ccc4c(c3)OCO4)CC2)cc1	4.9	-1.2	i	-5.9	-2.9	-2.3	-15.1	4.1
CC(=O)c1c(C)[nH]c(C(=O)Nc2cccc3ccccc23)c1C	0.2	-3.0	i	5.9	-2.3	7.2	2.4	-20.5
O=[N+]([O-])c1cc(S(=O)(=O)C(F)(F)F)ccc1N1CCN(c2ccccc2)CC1	6.1	-2.3	i	-6.4	.	-2.3	6.6	.
CN(C)C(=O)CCc1ccc2c3c([nH]c2c1)[C@]1(C)[C@@H](C(=O)N2CCOCC2)C[C@H](CC(=O)NCCN2CCOCC2)C(=O)N1CC3	0.3	7.2	.	.	-7.0	.	.	-4.2
CN1C(=O)/C(=C/c2cc3c(cc2Br)OCO3)NC1=S	-8.1	-0.4	i	-7.1	-16.3	-5.2	-4.7	.
S=C1N(c2ccccc2)CN(CCN2CCOCC2)CN1c1ccccc1	2.0	10.4	i	-1.9	-16.6	-0.9	-9.2	-19.4
COC(=O)c1ccc(NC(=S)NC2CCc3ccccc32)cc1 (configuration not stated)	2.4	-0.1	i	-4.1	-17.4	-3.9	-2.2	.
Fc1ccccc1Nc1nc(Cl)nc(Cl)n1	0.6	-0.1	i	-5.8	-7.6	-10.1	-8.6	-5.5
O=c1c(Cl)c(Cl)cnn1Cc1nnc(-c2ccccc2Br)o1	-12.7	-17.1	.	23.3	-346.8	-15.8	.	.
CCS(=O)(=O)c1ccc2c(c1)N(S(C)(=O)=O)CC(C(=O)NC1CC1)O2 (configuration not stated)	2.3	3.3	i	-2.1	37.8	-4.3	6.3	8.1
CCc1cccc(NC(=O)CN(C)S(=O)(=O)c2cnc[nH]2)c1	-1.2	-1.9	i	4.4	.	-1.1	-13.7	-6.7
O=C(NC1CCN(C(=S)NCCc2ccccc2)CC1)C1CC1	-1.6	0.3	i	-2.0	21.7	6.2	4.7	.
CCn1c(CC(=O)Nc2ccc(Cl)c(Cl)c2)nnc1SCc1ccc(C)cc1	0.5	6.5	i	6.1	9.7	13.1	.	-19.5
Oc1c(C(c2cccs2)N2CCC3(CC2)OCCO3)sc2ncnn12 (configuration not stated)	1.4	4.2	i	-4.2	.	1.1	2.3	-1.7
O=C(NCc1ccccc1)C(c1ccc(F)cc1)N(Cc1ccc2c(c1)OCO2)C(=O)Cn1nnc(-c2cccs2)n1 (configuration not stated)	-9.3	-2.0	i	-12.9	-233.5	3.9	6.6	-4.7
CC(=O)Oc1ccc2c(c1)C(=O)c1ccccc1C2=O	-2.0	0.1	i	-7.8	-16.4	5.4	4.5	-7.9
O=C(O)CC(NC(=O)C(c1ccccc1)c1ccccc1)c1ccco1 (configuration not stated)	1.9	1.1	i	-8.1	.	-8.1	-4.8	-1.1
CC(C)NS(=O)(=O)c1ccc(Br)c(C(=O)OC(C)C(=O)NC2CCCCC2C)c1 (configuration not stated)	5.1	-6.2	i	.	13.3	.	0.1	7.6
COc1ccc(N2CCN(C(=O)C3CCN(S(=O)(=O)N4CCOCC4)CC3)CC2)cc1	0.2	-5.8	.	11.7	.	-6.4	.	1.1
CC(C)NC(=O)c1ccc2c(c1)S(=O)(=O)c1ccccc1C2=O	-0.2	3.6	i	-0.9	.	4.9	-11.3	-14.0
O=C(C1COc2ccccc2O1)N1CCN(S(=O)(=O)c2ccccc2)CC1 (configuration not stated)	-1.9	-1.3	i	-11.6	-7.5	1.2	3.6	-5.7
COc1cccc(OC)c1OCCOc1ccc(C(=O)c2ccccc2)cc1	-0.9	0.8	i	1.0	-2.0	-0.7	9.6	.
CCCCCn1c(=O)c(-c2nc3ccccc3c(=O)[nH]2)c(O)c2ccccc21	.	.	i	3.7	.	5.0	.	.
COc1ccc2c(c1OC)C(=O)N1N=C(c3ccc(-c4ccccc4)cc3)CC21 (configuration not stated)	5.8	-7.1	i	0.5	-2.5	2.6	-4.5	.
CCOC(=O)C1CCN(S(=O)(=O)c2cccc(-c3csc(C)n3)c2)CC1	-4.3	-3.0	i	-9.1	.	-4.1	-6.6	-8.0
COc1cccc(CN2C(=O)C3CCCN3c3ccc(S(=O)(=O)N4CCOCC4)cc32)c1 (configuration not stated)	.	.	.	-9.6	.	-10.2	3.6	.
COc1cccc(-c2csc(/C(C#N)=C/Nc3cc4oc5ccccc5c4cc3OC)n2)c1	-18.1	0.9	i	1.5	1.3	-18.3	-6.6	.
C=CCC(CC=C)(NC(=O)c1ccccc1C(=O)O)c1ccccc1	-3.6	4.9	i	-6.2	.	-14.8	7.5	-1.5

# (more compounds)
structure	MT1-MMP act inh	MT1-MMP act inh RFP	Rce1 inh	eIF4H FP inh	HIV Env fusion	PABP FP inh	CSC inhib	UUG fidelity
N#Cc1ccc(COC(=O)c2cc(=O)c3ccccc3o2)cc1	2.7	2.3	i	-7.1	10.2	14.0	1.5	.
Cc1nnc(-c2ccc(Oc3ccc(Br)cc3)c([N+](=O)[O-])c2)o1	-1.7	-2.4	i	-2.5	5.0	-3.4	139.1*	.
O=C(C1=NOC(CNc2ncc(C(F)(F)F)cc2Cl)C1)N1CCOCC1 (configuration not stated)	-0.4	-1.1	i	-5.6	-7.1	10.8	.	-6.8
Cc1nn(CCC#N)c2nc(C(F)(F)F)[nH]c(=O)c12	2.9	1.6	i	2.5	.	11.7	12.2	-11.8
CC(C)NCC(=O)NC12CC3CC(CC(C3)C1)C2	2.2	5.6	i	4.0	.	-5.8	6.3	.
Cc1cc(N2CCCCC2)nc2ccc(NC(=O)c3ccc(Br)o3)cc12	1.9	-2.3	i	-3.4	-21.7	-14.6	56.8	-20.3
Cc1nn(-c2ccccc2)c(N)c1N=Nc1ccc2ccccc2c1	-0.3	-5.7	i	0.2	-101.6	2.9	?	-11.6
